PINK1 expr mod: modulators of PINK1 expression; 410,000 compounds, 0.2% hits; PINK1 immunofluorescence, high-content cytometry, 24 h; Potency, µM (doses to about 76.6 µM), without a hit: at the top dose activation (PINK1 increase), hits mostly activators; active = well fitted activation curve with a large enough effect; inconclusive = small, poorly fitted or top-dose-only effect; inactive = flat fitted curve, though single readings scatter; cell line not stated here;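 note: potency is the fitted concentration of half-maximal effect; % of control where 0% means no effect; nearly all actives have a fitted effect of over 65% in size; a mitochondrial uncoupler was the plate control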
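Fluorescence from anti-PINK1 antibody, together with nuclear and cell stains, was scanned on a laser-scanning cytometer. Before staining, stable-line cells were incubated 24 hours with compounds at 5 concentrations; primary antibody 12 h at 10 degrees C.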
ClpP mod: qHTS Assay for Activators of ClpP | 340,000 compounds, 1.9% hits | purified B. subtilis ClpP, FRET peptide cleavage, 20 min | AID 651965, 2013 | Potency, µM (top dose mostly 57.5 µM), inactives show top-dose activity change, negative = active | ATP-dependent Clp protease proteolytic subunit (Bacillus subtilis (strain 168)), P80244; active = well fitted falling curve with a large enough effect; inconclusive = small, poorly fitted or top-dose-only effect; inactive = no such curve, though single readings can be large or run the other way; note: potency is the fitted concentration of half-maximal effect; the source files actives as falling curves though it sought activators and does not explain the sign; nearly all actives have a fitted effect of over 65% in size; many hits overshoot -100%
Target sequence (P80244 whole entry, looked up): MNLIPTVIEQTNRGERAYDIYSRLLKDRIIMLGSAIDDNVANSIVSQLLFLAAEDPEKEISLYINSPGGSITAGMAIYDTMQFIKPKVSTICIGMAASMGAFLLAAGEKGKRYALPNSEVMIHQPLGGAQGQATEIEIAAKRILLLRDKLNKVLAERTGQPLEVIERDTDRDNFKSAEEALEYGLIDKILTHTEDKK
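FRET quenching reversal measured ClpP activation: 10 microg/mL B. subtilis ClpP at pH 8 with the FRET-FV decapeptide, read at 430 nm after 320 nm excitation. The 20-min minus 0-min signal was scaled between DMSO/no-enzyme wells and ADEP (5.8 microM final).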
Sfp PPTase inh: inhibitors of Bacillus subtilis Sfp phosphopantetheinyl transferase; 310,000 compounds, 3.5% hits; Biochemical Sfp PPTase activity, qHTS; Potency, µM, without a hit: max response, negative = inhibition, most hits filed as inhibitors; active = well fitted inhibition curve with a large enough effect; inconclusive = small, poorly fitted or top-dose-only effect, or another doubt; inactive = no such curve, though single readings can be large or run the other way;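 note: the enzyme is Sfp with the accession as filed and its product quenches rhodamine fluorescence; potency is the fitted concentration of half-maximal effect; 0% = enzyme reaction without inhibitor and -100% = no enzyme wells; top concentration of the series not given in the record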
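Fluorescence-quenching assay: 15 nM Sfp-PPTase preincubated 15 min at room temperature with compound, then 5 uM rhodamine-CoA and 12.5 uM BHQ-2-labelled YbbR peptide added. Fluorescence (ex 525/em 598 nm) read at start and after 30 min; difference gives rate.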
D2 ag: agonists of human D2 dopamine receptor (beta-arrestin); activation, % (test concentration not listed); 360,000 compounds, 0.084% hits; DiscoveRx PathHunter D2 beta-arrestin, luminescence, 90 min; 100% = 57 uM dopamine signal; AID 624465; in the data active = activation above about 40%; inconclusive = about 15% to 40%; inactive = below about 15%; note: compound concentration not given in the record; the text of the record calls up to 30% inactive
Target sequence (P14416 whole entry, looked up): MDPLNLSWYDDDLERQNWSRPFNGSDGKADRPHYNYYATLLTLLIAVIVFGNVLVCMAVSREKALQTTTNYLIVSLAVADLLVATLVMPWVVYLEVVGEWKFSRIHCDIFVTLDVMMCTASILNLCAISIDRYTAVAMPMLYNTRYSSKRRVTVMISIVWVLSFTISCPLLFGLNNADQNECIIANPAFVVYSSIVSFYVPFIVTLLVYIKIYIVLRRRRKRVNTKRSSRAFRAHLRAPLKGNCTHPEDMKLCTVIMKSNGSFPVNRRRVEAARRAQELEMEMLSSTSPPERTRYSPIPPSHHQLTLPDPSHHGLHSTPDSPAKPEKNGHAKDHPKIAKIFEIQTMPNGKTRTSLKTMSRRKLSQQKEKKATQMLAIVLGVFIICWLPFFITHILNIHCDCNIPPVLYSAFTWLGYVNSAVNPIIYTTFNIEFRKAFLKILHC
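DiscoveRx PathHunter D2 beta-arrestin cells (2,100/well) attached overnight, then compound-stimulated 90 min at 37 C in HBSS/10 mM HEPES/0.1% Tween-20 buffer; beta-galactosidase complementation read by luminescence after 1 h at ambient temperature. Dopamine 57 uM final (EC100) as control.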
gsp antag: gsp mutant antagonism; gsp-mutant cells, cAMP HTRF, 30 min; control for the full effect not named in the record; Potency, µM (doses to about 76.9 µM), for the others: at the top dose activity change, negative = inhibition, actives largely listed as inhibitors; 340,000 compounds, 0.4% hits; active = falling curve of any shape with a large fitted effect; inconclusive = falling curve, mostly with a smaller effect; inactive = flat or rising curve; cell line not stated here;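 note: intracellular cAMP measured with PDE inhibitor Ro 20-1724 present during compound exposure; potency is the fitted concentration of half-maximal effect; % is set by controls: 0 for no effect and ±100 for the full control effect; nearly all actives have a fitted effect of over 65% in size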
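Measurement of cellular cAMP by homogeneous time-resolved fluorescence following a 30 min compound exposure at 37C. The PDE inhibitor […] was present throughout; the assay buffer was DPBS with 0.05% BSA and 0.005% Tween 20.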
Menin-MLL FL inh: inhibitors of human menin-MLL interaction, wild-type MLL peptide; FP activity change, % at 61.4 µM; Fluorescence polarization, fluorescein-MLL peptide displacement from menin; AID 1766; 290,000 tested, under 10 active; inconclusive = falling polarisation curve, or a change in total fluorescence; inactive = total fluorescence flat and polarisation flat or rising; no compound was filed as active; the % refers to the polarisation; negative = inhibition;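 note: % of control where 0% means no effect; inhibitors lower the polarisation; unlabelled MLL peptide was the positive control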
gsp ag: agonists of gsp mutant (McCune-Albright syndrome) | gsp mutant cells, cAMP HTRF, 30 min; control for the full effect not named in the record | 340,000 compounds, 0.13% hits | Potency, µM (series often up to 76.9 µM), inactives show top-dose activation (cAMP increase), actives largely listed as activators; active = well fitted activation curve with a large enough effect; inconclusive = small, poorly fitted or top-dose-only effect, or another doubt; inactive = no such curve, though single readings can be large or run the other way; cell line not stated here;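 note: phosphodiesterase inhibitor Ro 20-1724 added with compounds to block cAMP breakdown; potency is the fitted concentration of half-maximal effect; nearly all actives have a fitted effect of over 60% in size; about a fifth of the inactives were tested at one dose only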
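Cells in DMEM/10% FBS with G418 were pretreated with compounds in DMSO plus […] (300 uM stock) for 30 min at 37C. cAMP was measured by HTRF (cAMP-d2 plus anti-cAMP antibody-K) after 30 min at room temperature.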
Active calls of the source: *; ? = inconclusive; / = no result given; & = joins results of further samples; [ ] = dose if it differs, or a comment. Some of the compounds tested (hit frequency here may not be typical).

SMILES	PINK1 expr mod	ClpP mod	Sfp PPTase inh	D2 ag	gsp antag	Menin-MLL FL inh	gsp ag
Cc1ccc(-c2nc3ccccc3c(=O)n2-c2cccc(O)c2)cc1	1.1%	/	21%	1.7	-15%	-15	-48%[inhibitor]
NC(=O)Nc1cccc(C(F)(F)F)c1	-7.8%[38.3 µM]	0.5%	16%	1.9	12%	0.9	-68%[inhibitor]
CN=C1CN(O)C(c2ccccc2)c2cc(Cl)ccc2N1 (configuration not stated)	1.1%	/	/	0.5	2%	/	-10%
COC(=O)C1=C(c2ccc(-c3ccccc3)c(F)c2)C[C@@H]2CC[C@H]1N2C(=O)NCc1cccc2ccccc12	0.4%	?	/	-3.3	0%	/	/
CC1=C(/C=C/c2ccccc2)CCN(C)C1	1.3%[38.3 µM]	-4.8%	-14%	0.1	2%	0.6	-71%[inhibitor]
CCCCN=C[C@]12CCC(O)CC1(O)CCC1[C@@H]2CC[C@]2(C)[C@H](C3C=CC(=O)O3)CCC12O (some centres not stated)	-2.0%	/	16%	5.8	6%	-1.1	-12%
COC(=O)[C@@]12CCCCN1[C@H](c1ccc(-c3ccc(Cl)c(Cl)c3)c(OC)c1)[C@@H]1C(=O)N(C)C(=O)[C@@H]12	1.9%	-4.0%	/	-2.6	-9%	/	?
CC1CN=C(NCc2ccc(F)cc2)S1 (configuration not stated)	-1.6%	0.2%	-5%	-2.4	7%	-6.9	8%
CCN(CC)C(=O)Oc1ccc2cc(Br)ccc2c1	4.2%	0.3%	10%	0.6	-19%	5.8	?
COc1ccc(-n2c(O)c(C(C)=NCc3ccc4c(c3)OCO4)c(=O)[nH]c2=O)cc1	-0.2%	-0.5%	1%	0.4	-8%	-3.6	9%[15.4 µM]
C=CCSc1nc2c(c(-c3ccsc3)c1C#N)CN(C)CC2	3.9%	-0.2%	-14%	1.5	-10%	?	2%[15.4 µM]
CCOc1nc(NC(C)C)nc(N2CC3CC(C2)c2cccc(=O)n2C3)n1 (configuration not stated)	0.7%	-12%	0%	-6.0	-16%	-0.1	-15%

Looked up above.
Reading for CC1CN=C(NCc2ccc(F)cc2)S1 (configuration not stated) in Sfp PPTase inh: -5%
Reading for Cc1ccc(-c2nc3ccccc3c(=O)n2-c2cccc(O)c2)cc1 in PINK1 expr mod: 1.1%

The list goes on:
SMILES	PINK1 expr mod	ClpP mod	Sfp PPTase inh	D2 ag	gsp antag	Menin-MLL FL inh	gsp ag
CCCC12CN3CCN(C1)CC(CCC)(C3)C2=O	-1.0%	/	18%	-2.6	6%	2.3	-4%[15.4 µM]
COC(=O)c1cncn1C(C)c1ccccc1 (configuration not stated)	5.7%[38.3 µM]	-0.7%	-9%	-2.6	-3%	3.3	-50%
O=C1NC(=O)[C@]2(Cc3ccccc3N3CCN(c4ccccc4)CC32)C(=O)N1c1ccccc1 (some centres not stated)	1.9%	1.3%	-3%	12	-6%	-0.2	18%
CCOc1ccccc1N1C(=O)NC(=O)C(CCc2ccncc2)(CCc2ccncc2)C1=O	0.3%	-5.4%	23%	-0.8	2%	11	7%
N#CSCC(=O)N1c2ccccc2CCc2ccccc21	-1.5%	1.3%	-21%	-8.9	-4%	3.9	-12%
COc1ccc(C(C)=O)cc1CC(C(=O)c1ccc(F)cc1)N(C)C (configuration not stated)	-0.4%	/	-1%	-3.4	9%	?	1%[15.4 µM]
O=C(C1CCN(Cc2ccccc2)CC1)N1CCCC1	2.0%	-1.1%	79µM*	-0.8	-7%	-2.9	25%
COC(=O)C(O)(c1ccc(N(C)S(=O)(=O)c2ccccc2)cc1)C(F)(F)F (configuration not stated)	0.3%	3.2%	20%	-1.6	8%	4.9	-3%
CCOC(=O)c1ccc(N2C(=O)CC(N3CCC(O)(c4ccc(Cl)cc4)CC3)C2=O)cc1 (configuration not stated)	0.7%	1.8%	8%	1.8	?	3.1	-22%
CS(=O)(=O)c1ccc(C2=C(CNC(=O)c3nccs3)[C@H]3CC[C@@H](C2)N3Cc2ccco2)cc1	1.9%	0.5%	/	-8.8	/	/	-32%[inhibitor]
Cc1ccc(/C=C2\C(=O)NC(=O)N(CC3CCCO3)C2=O)s1 (configuration not stated)	2.8%	/	?	-3.2	6%	3.1	24%
CC(N)Cc1c[nH]c2ccc(Cl)cc12 (configuration not stated)	-3.2%	1.6%	/	9.0	20%	/	0%
COC(=O)c1c(C)n(Cc2ccc3c(c2)OCO3)c2ccc(O)cc12	3.2%[38.3 µM]	-2.6%	-8%	-2.5	?	0.1	-38%[inhibitor]
C=CC1CN2CCC1CC2C(O)c1ccnc2ccccc12 (configuration not stated)	-0.1%	-2.6%	-3%&7%	3.7	12%	-1.0&-5.2	/
C1CCC2CCCCC2C1 (configuration not stated)	0.6%	0.5%	/	-6.6	-1%	/	/
CCOC(=O)[C@]12Cc3cc(N(C)C)ccc3[C@H]1N(Cc1ccccc1)C(=O)c1ccccc12	0.1%	?	/	-2.6	-15%	/	-1%
O=C(O)Cn1cc(C=C2C(=O)NC(=O)NC2=O)c2ccccc21	-1.4%	-0.6%	4%	-1.1	7%	22	9%
Clc1ccc(N2CC2c2ccncc2)cc1 (configuration not stated)	4.1%	/	14%	-4.7	14%	-6.4	-2%
C=C1C(O)[C@@H]2O[C@]3(CC[C@H](/C=C/C(C)[C@@H]4CC(C)=CC5(O[C@H](C[C@@](C)(O)C(=O)O)CCC5O)O4)O3)CC[C@H]2O[C@@H]1C(O)CC(C)[C@H]1OC2(CCCCO2)CCC1C (some centres not stated)	-1.9%	-2.2%	/	-6.0	?	/	/
N#CC(c1ccccc1)N1CCOCC1 (configuration not stated)	0.9%	-0.8%	5%	-2.4	14%	-1.4	?
CCCN(CCC)C1Cc2cc(OC)c(OC)cc2C1	1.1%	-0.4%	5%&-16%	-5.8	0%	-1.4&-16	/
O=[N+]([O-])c1ccc2c(c1)C(c1ccccc1)=NCCN2	2.2%	/	3%	-1.0	1%	1.4	?
COc1cc(/C=C2/C(=O)NC(=O)N(c3ccc(C)cc3)C2=O)cc(OC)c1OC	0.0%	/	50µM*	-4.1	-7%	?	6%[15.4 µM]
COc1ccc(CCNCc2cccc(C(F)(F)F)c2)cc1OC	1.1%	-0.6%	-14%	-0.3	23%	-0.5	5%
COC(C)(C)CCCC(C)C/C=C/C(C)=C/C(=O)OC(C)C (configuration not stated)	1.9%	-1.5%	0%&28%	-3.3	-4%	1.8&0.2	/
CC1=CC(=C2C(=O)NC(=O)NC2=O)C=C(C(F)(F)F)N1Cc1ccccc1	2.0%	/	1%	-5.2	9%	7.1	13%
COC[C@]12CN(C)C3C4[C@H](OC)[C@H]1C3([C@@H](OC)C[C@H]2O)[C@@H]1C[C@@]2(O)[C@H](OC(=O)c3ccccc3)[C@@H]1[C@]4(OC(C)=O)[C@@H](O)[C@@H]2OC	0.1%	0.3%	/	1.9	5%	/	7%
O=C1NC(=O)N(Cc2ccccc2Cl)C(=O)/C1=C/c1cccs1	?	2.4%	32µM*	-4.8	3%	?	-31%[inhibitor]
CCC(=NCCN1CCOCC1)c1c(O)n(C2CCCCC2)c(=O)[nH]c1=O	1.9%	/	0%	-1.0	-16%	4.2	-4%[15.4 µM]
NC1C2CN3CCN(C2)CC1(c1ccccc1)C3 (configuration not stated)	1.1%	2.0%	0%	-5.2	11%	-0.1	?
O=C1NC(=O)N(c2ccccc2)C(=O)/C1=C\c1ccc([N+](=O)[O-])s1	3.3%	/	13µM*	2.1	-4%	?	?
Nc1ccc(Cl)cc1C(=O)c1ccccc1Cl	7.3%	1.2%	18%	-0.9	-3%	0.6	-26%
Cc1ccc(C2N(c3ccccn3)C(=O)C3CCCN32)o1 (configuration not stated)	-0.7%	-4.4%	-8%	-5.5	19%	4.2	18%
COc1ccccc1CCNC1CCCC(C)C1 (configuration not stated)	0.3%	-0.7%	12%	-4.8	7%	6.9	?
O=C1CC23c4ccccc4N4C(=O)CC5OCC=C6CN1C2CC6C5C43 (configuration not stated)	-3.6%	-23%	/	-2.6	6%	/	-13%
C=CCn1c(O)c(C(C)=NC(C)c2ccccc2)c(=O)[nH]c1=O (configuration not stated)	1.8%	0.7%	13%	-4.9	6%	3.5	0%

One compound at a time (already shown).
C=CCn1c(O)c(C(C)=NC(C)c2ccccc2)c(=O)[nH]c1=O (configuration not stated) reads PINK1 expr mod: 1.8%; ClpP mod: 0.7%; Sfp PPTase inh: 13%; D2 ag: -4.9; gsp antag: 6%; Menin-MLL FL inh: 3.5; gsp ag: 0%
Cc1ccc(C2N(c3ccccn3)C(=O)C3CCCN32)o1 (configuration not stated) reads PINK1 expr mod: -0.7%; ClpP mod: -4.4%; Sfp PPTase inh: -8%; D2 ag: -5.5; gsp antag: 19%; Menin-MLL FL inh: 4.2; gsp ag: 18%

The listing continues.
SMILES	PINK1 expr mod	ClpP mod	Sfp PPTase inh	D2 ag	gsp antag	Menin-MLL FL inh	gsp ag
CCOC(=O)c1c(-n2c(C)cc(C=C3C(=O)NC(=O)NC3=O)c2C)sc2c1CCCC2	2.3%	-1.3%	-28%	-2.9	-19%	3.2	0%
Cc1ccc(-n2c(O)c(/C=N/N3CCCCC3c3cccnc3)c(=O)[nH]c2=S)cc1 (configuration not stated)	-1.1%	-1.5%	-19%	4.6	-14%	?	-25%
CC1CCCN(C(=O)c2ccc(N3CC4CC(C3)c3cccc(=O)n3C4)c([N+](=O)[O-])c2)C1 (configuration not stated)	4.8%	-3.1%	-2%	-2.7	7%	0.6	2%
O=C(c1ccccc1)c1cn(CC(=O)N2CCCc3ccccc32)c2ccccc12	1.0%	-3.2%	10%	1.6	-15%	4.3	-20%
Cc1ccc(-c2nc3ccc(C)cn3c2CC(=O)N(C)C)cc1	1.5%	4.4%	-18%	-2.7	-1%	1.4	/
CCN1CC2(COC(=O)c3ccccc3N)CCC(OC)C34C5CC6C(OC)CC(O)(C5C6OC)C(O)(C(OC)C23)C14 (configuration not stated)	0.3%	16µM*	17%	-4.8	6%	-2.9	?

Screening results as filed in PubChem BioAssay.
